# High-throughput results deposited in PubChem BioAssay by National Center for Advancing Translational Sciences (NCATS).
# Rango complex inh = Rango-importin beta binding inhibition; Q14974; actives 0.031% (n = 340,000); Potency, µM (titrated, usually from 92.2 µM), without a hit: at the top dose inhibition of complex formation; Rango CFP/YFP FRET sensor + importin beta, 45 min; active = rising FRET ratio curve, often small or poorly fitted; inconclusive = mostly compound fluorescence or quenching in the first reads; inactive = flat curves in all reads;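 further: potency means the concentration at half of the fitted maximal effect; 0% = DMSO wells and 100% = buffer wells lacking importin beta; nearly all actives have a fitted effect of over 15% in size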
# Target sequence (Q14974 whole entry, looked up): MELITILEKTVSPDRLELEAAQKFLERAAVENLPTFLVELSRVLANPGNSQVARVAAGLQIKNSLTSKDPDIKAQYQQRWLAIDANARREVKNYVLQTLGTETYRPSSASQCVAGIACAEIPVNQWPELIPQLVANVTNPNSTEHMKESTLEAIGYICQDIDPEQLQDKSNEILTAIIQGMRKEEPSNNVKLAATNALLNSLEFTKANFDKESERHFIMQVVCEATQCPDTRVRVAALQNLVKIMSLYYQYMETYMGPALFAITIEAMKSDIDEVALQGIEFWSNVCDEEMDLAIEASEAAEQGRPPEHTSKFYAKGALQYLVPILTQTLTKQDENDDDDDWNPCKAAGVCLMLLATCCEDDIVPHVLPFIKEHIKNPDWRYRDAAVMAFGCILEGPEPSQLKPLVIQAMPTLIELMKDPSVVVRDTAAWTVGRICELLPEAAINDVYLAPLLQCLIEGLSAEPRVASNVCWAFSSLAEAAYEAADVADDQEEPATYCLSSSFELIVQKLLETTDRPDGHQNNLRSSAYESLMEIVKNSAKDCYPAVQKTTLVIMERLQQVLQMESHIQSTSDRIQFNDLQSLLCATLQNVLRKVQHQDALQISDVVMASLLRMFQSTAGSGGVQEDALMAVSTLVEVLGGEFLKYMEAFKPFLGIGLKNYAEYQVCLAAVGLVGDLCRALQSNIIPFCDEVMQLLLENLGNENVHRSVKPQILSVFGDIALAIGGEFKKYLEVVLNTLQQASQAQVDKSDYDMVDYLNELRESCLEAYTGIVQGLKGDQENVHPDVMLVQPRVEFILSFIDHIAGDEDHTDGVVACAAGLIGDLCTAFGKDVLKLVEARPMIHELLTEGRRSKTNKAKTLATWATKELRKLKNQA
#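 FRET biosensor Rango (snurportin 1 IBB between N-terminal EYFP and C-terminal Cerulean), 50 nM in PBS/1 mM DTT/0.02% Tween-20/0.1% BSA, preincubated 5 min RT with compound; 0.125 microM importin beta added, 45 min RT, CFP/YFP FRET ratio read.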
# Rango dissoc inh = inhibitors of RanGTP-induced Rango-importin beta complex dissociation; O95149+P62826; Biochemical FRET Rango-importin beta, RanGTP-induced dissociation; Potency, µM (doses to about 46.1 µM), for the others: at the top dose activity change, negative = inhibition; actives 0.071% (n = 340,000); active means falling FRET ratio curve, often poorly fitted, with flat reads before Ran was added; inconclusive means other falling curves, or compound fluorescence or quenching; inactive means flat or rising ratio curve;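 further: potency means the concentration at half of the fitted maximal effect; % of control where 0% means no effect; nearly all actives have a fitted effect of over 45% in size; -100% = wells without RanGTP and RCC1; the record marks most hits as doubtful in a second field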
#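 Rango/importin beta premix (0.1/0.25 uM final), PBS + 1 mM DTT + 0.02% Tween-20 + 0.1% BSA; cpd 5 min RT; FRET pre-read; + RanGTP-RCC1 (0.6 uM Ran, 2 mM GTP, 0.2 uM RCC1); 45 min RT; FRET post-read, ex 430, em 486/530 nm.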
# GLA inh pH 4.5 = alpha-galactosidase A (human) inhibition, pH 4.5; AID 1467; purified enzyme, 4-MU-alpha-Gal fluorescence, pH 4.5; P06280; 230,000 tested, under 10 active; activity change, negative = inhibition, % at 105 µM; inconclusive = small, poorly fitted or top-dose-only inhibition, or a rising curve; inactive = flat fitted curve, though single readings scatter; no compound was filed as active;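 further: 0% = full activity with enzyme and -100% = basal without enzyme; dose as in the result columns while the protocol names 77 µM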
# miR-21 FLuc = raises the signal of a miR-21 reporter. HeLa miR-21 FLuc reporter, luciferase, 48 h. Potency, µM (top dose mostly 38.3 µM), without a hit: at the highest dose reporter change, positive = more light. 340,000 tested, under 10 active; active = well fitted rising curve with a large enough effect; inconclusive = small, poorly fitted or top-dose-only effect; inactive = no such curve, though single readings can be large or run the other way;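 further: % of control where 0% means no effect; miR-21 action dims this reporter so a rising signal means less miR-21 action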
#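 Luminescence from a firefly luciferase reporter carrying a miR-21 binding site downstream, stably expressed under a CMV promoter in HeLa cells that make miR-21 endogenously, reports miRNA modulation after 48 h compound exposure up to approximately 40uM final.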
# The depositor's hits bear a star; ? = inconclusive; . = not tested or not shown; & = joins results of further samples. This is a subset; count on the stated rates, not on these rows.
SMILES,Rango complex inh,Rango dissoc inh,GLA inh pH 4.5,miR-21 FLuc
Cc1nc2sccn2c(=O)c1S(=O)(=O)N1CCN(c2ccccc2)CC1,-2.0%,7%,.,-3%
CN(CCO)C(=O)C1CCN(c2ncc(C(F)(F)F)cc2Cl)CC1,?,-2%,5,0%
Cc1c(C)n(C)c2ccc(C(=O)NCCCN3CCN(c4ccc(F)cc4)CC3)cc12,8.2%,0%,.,-1%
O=C(NCc1ccccc1)c1noc2c1CCCC2,6.1%,1%,-4,-2%
Cc1ccc(Cl)cc1NC(=S)NCCCSC1CCCCC1,0.2%,-7%,-5,23%
COc1ccc(S(=O)(=O)N2CCN(CC(=O)Nc3ccc(C)c(F)c3)CC2)cc1,?,4%,-2,9%
O=C(COC(=O)c1ccc(S(=O)(=O)N2CCOCC2)cc1)NC1CCCCCCC1,-0.7%,-7%,12,-1%
COc1ccc(OCCNC(=O)CCCO)cc1,0.6%,-7%,-7,-1%
Cc1nc2sccn2c1P(c1c(C)nc2sccn12)c1c(C)nc2sccn12,-2.6%,6%,1,-22%
CC(=O)Nc1sc2c(c1C(c1ccc(F)cc1)N1CCOCC1)CCCC2 (centres undefined),0.6%,10%,-7,8%
Cc1ccc2c(c1)nnn2C1CCN(S(=O)(=O)c2ccc(C(=O)N3C(C)CCCC3C)cc2)CC1 (centres undefined),-0.6%,-3%,3,26%
COc1ccc([C@H]2CC(=O)C=C(c3cccc(OC)c3)C2)cc1,0.6%,-16%,.,.
C(=N\n1cnc2ccccc21)/c1cccnc1,-1.6%,15%,4,-38%
O=[N+]([O-])c1ccc(Cl)c(S(=O)(=O)N2CCCCCC2)c1,-4.6%,7%,0,-11%
COc1ccc(N2C(=O)/C(=C/c3ccc([N+](=O)[O-])cc3)N=C2C)c(OC)c1,1.2%,-6%,-10,-1%
Cc1ccc(S(=O)(=O)N2CCOCC2)cc1NC(=O)COC(=O)CCOc1ccc(C(C)(C)C)cc1,0.1%,19%,.,.
Cc1ccc(S(=O)(=O)n2nc(C)c(S(=O)(=O)N3CCOCC3)c2C)cc1,2.3%,-4%,.,0%
Cc1cc(N2CCCC2)nc2ccccc12,1.1%,17%,28,-7%
COc1ccc(C2C(C#N)=C(N)Oc3n[nH]c(C)c32)cc1CSc1ccccn1 (centres undefined),-0.8%,15%,-1,-5%
Cc1ccc(C(=O)Nc2nc(-c3ccco3)c(-c3ccco3)s2)o1,?,-23%,.,.
Cc1cnc(C(=O)Nc2ccc(S(=O)(=O)NCC(C)C)cc2)cn1,-1.2%,16%,1,-1%
CCOc1ccccc1N1CCN(CC(=O)c2c(N)n(C)c(=O)n(C)c2=O)CC1,0.2%,1%,-7,1%
CCCCCCCCCCCCCCCCn1cc[n+](CC(C)=O)c1,19%,-21%,4,?
Cc1cccc(C)c1N1CCN(c2nc(N(C)C)oc(=O)c2C#N)CC1,-2.0%,-3%,-18,1%
CCOC(=O)c1c(NC(=O)COC(=O)c2ccc(Cl)nc2)sc(C(=O)N(C)C)c1C,-2.8%,-1%,.,.
CCCCOP(=O)(c1ccc(N(C)C)cc1)C(O)c1cccnc1 (centres undefined),1.7%,-3%,1,-4%
CC(=O)N1N=C(c2ccc(C)cc2)OC1c1ccc(C(C)C)cc1 (centres undefined),-0.9%,-10%,-4,-61%
C/C(=N/NC(=O)CNC(=O)c1cccs1)c1ccco1,4.4%,0%,-12,-7%
COCCn1nnnc1C(c1ccccc1OC)N1CCN(c2ccccc2F)CC1 (centres undefined),7.6%,11%,-9,-6%
O=C1NCCSC1c1ccccc1 (centres undefined),-0.7%,1%,.,.
Cc1cccc(C(C)C)c1NC(=O)c1ccc(OCC2CCCO2)cc1 (centres undefined),0.2%,9%,.,.
Cc1ccc(O)c(NC(=O)c2cccc(S(=O)(=O)N3CCCCC3)c2)c1,0.2%,12%,-3,3%
CCC1CCCCN1C1Sc2ccc(C(=O)OC)cc2NC1=O (centres undefined),4.0%,10%,2,-1%
O=c1[nH]c2ccc(S(=O)(=O)N3CCCC3)cc2[nH]1,1.7%,16%,.,0%
CCCCNC(=O)CCn1c(=S)[nH]c2cc3c(cc2c1=O)OCO3,-2.6%,19%,5,-3%
O=C1COc2ccc(C(=O)CSc3nnc(Cc4cccs4)n3-c3ccccc3)cc2N1,0.0%,0%,-2,8%
FC(F)(F)c1cc(Cl)c2nc(-c3ccccc3)cn2c1,-1.0%,16%,-21,-68%
O=C(N/N=C/c1ccc(Cl)cc1)c1sccc1OCc1ccc(F)cc1,0.7%,-6%,-2,-3%
O=C(NCC1COc2ccccc2O1)c1cc(S(=O)(=O)N2CCOCC2)c(Cl)cc1Cl (centres undefined),-4.2%,-14%,.,.
O=C(C(=O)N1CCN(C(=O)c2ccco2)CC1)c1c[nH]c2ccccc12,-3.0%,-12%,-6,-7%
COc1ccc(C(=O)OCC(=O)N(C)C2CCS(=O)(=O)C2)cc1S(=O)(=O)N1CCCc2ccccc21 (centres undefined),0.4%,0%,3,-21%
CC1=C(C(=O)O)N2C(=O)C(NC(=O)c3ccc(F)cc3)C2SC1 (centres undefined),-1.4%,17%,.,.
CCC(=O)N1CCN(c2ccc(NC(=O)c3ccc(C#N)cc3F)cc2Cl)CC1,-0.4%,25%,-10,-2%
CC(=O)Nc1cccc(/C(C)=N/NS(=O)(=O)c2ccccc2)c1,6.6%,9%,-4,-8%
N/C(=N\OC(=O)c1cccc2ccccc12)c1ccncc1,-2.2%,-8%,-1,-61%
Cc1cccc(N2CCN(C(=O)c3cccc(N4C(=O)C5C6C=CC(C6)C5C4=O)c3)CC2)c1C (centres undefined),0.0%,0%,.,-2%
Cc1ccc(N/C=C/C(=O)c2ccco2)c(O)c1,?,?,0,-59%
CN=C1SC(CC(=O)Nc2c(C)cccc2C)C(=O)N1/N=C/c1cccs1 (centres undefined),-1.4%,-5%,2,-5%
CSc1nc(Oc2ccc(=O)[nH]n2)nc(N(C)C)n1,-2.0%,-6%,0,-6%
O=C(CSc1ncn[nH]1)N1N=C(c2ccc(Cl)cc2)CC1c1ccco1 (centres undefined),-0.7%,0%,1,-11%

# The list continues.
SMILES,Rango complex inh,Rango dissoc inh,GLA inh pH 4.5,miR-21 FLuc
CCCCN1C(=S)SC(C)(C)C1/[N+]([O-])=C/c1ccc(S(=O)(=O)NC)cc1 (centres undefined),0.0%,15%,-8,3%
Cc1noc2ncc(C(=O)c3cc(F)ccc3O)cc12,0.3%,1%,-6,1%
CC(O)(Cc1ccccn1)Cc1ccccn1,-0.5%,27%,.,.
COC(=O)c1[nH]c2ccccc2c1NC(=O)C(C)N1CCN(C(=O)c2ccco2)CC1 (centres undefined),-0.9%,9%,-2,-7%
O=C(CN1C(=O)NC2(CCCCCC2)C1=O)c1ccc(OC(F)F)cc1OC(F)F,-2.0%,-7%,.,.
Cc1cc(NC(=O)CNC(=O)C2CCCCC2)no1,2.0%,-13%,-1,-5%
COc1ccc(S(=O)(=O)Cc2ccc(C(=O)NCc3ccco3)o2)cc1,-3.8%,1%,2,-2%
Cc1ccc(C)c(NC(=O)C2CCCN(S(=O)(=O)c3c(C)noc3/C=C/N(C)C)C2)c1 (centres undefined),?,-24%,.,4%&6%
COc1ccc(-c2cc(-c3ccccc3)n[nH]2)c(O)c1,-2.3%,22%,0,-34%
COc1ccccc1CNC(=O)C1CCCN(c2cnccn2)C1 (centres undefined),1.4%,5%,.,2%
Fc1ccccc1Nc1ncnc2c1nnn2Cc1ccccc1,0.3%,1%,.,-24%
CC(=O)n1c2ccccc2c2c1c1ccccc1n2C,-0.9%,6%,22,-14%
O=C(c1ccc2ccccc2c1)C1CCCN(C(=O)CN2C(=O)CSC2=O)C1 (centres undefined),2.0%,-24%,-21,-5%
CCC(c1nnc(SCC(=O)N2CC3(C)CC2CC(C)(C)C3)o1)N(C)C (centres undefined),-7.1%,3%,8,1%
COC(=O)c1sccc1NC(=O)c1c(-c2ccccc2)noc1C,4.0%,2%,-14,3%
COc1cc(NC(=O)c2ccc(C)c([N+](=O)[O-])c2)ccc1NC(=O)c1ccco1,.,.,2,5%
Cc1c(NC(=O)C(C)OC(=O)c2ccc(Br)o2)c(=O)n(-c2ccccc2)n1C (centres undefined),0.4%,15%,4,-1%
COc1ccc(Cl)cc1NS(=O)(=O)c1cccc(C(=O)NC2CCN(Cc3ccccc3)CC2)c1,2.1%,2%,.,.
OCCCCCNc1ncnc2ccccc12,-1.7%,-2%,-2,3%
CCC1=NN(C(=O)c2cccnc2)C(O)(C(F)(F)F)C1 (centres undefined),-0.1%,-4%,6,-1%
Cc1ccc(-n2c(N)c(-c3nc4ccccc4n3C)sc2=S)cc1,-1.3%,-16%,4,-18%
COc1ccc(C2C/C(=N\O)C(C)(C)O2)cc1 (centres undefined),-5.9%,12%,-3,-6%
CC(C)CNS(=O)(=O)c1ccc(Br)cc1N1CCC[C@@H]1CO,12%,-7%,.,.
C=CCn1c(SCC(=O)Nc2cc(C)on2)nc2sc3c(c2c1=O)CCCC3,3.1%,-7%,-4,-4%
COc1ccc(CN2CCC(C(N)=O)CC2)cc1OCc1ccccc1,-0.2%,10%,.,-6%
Cc1ccc(Nc2nc(N)nc(CN3CCN(Cc4ccc5c(c4)OCO5)CC3)n2)cc1Cl,-1.3%,0%,-6,14%
CCN(C(=O)CSc1nnc(COc2ccccc2F)n1N)c1c(N)n(Cc2ccccc2)c(=O)[nH]c1=O,0.2%,0%,.,.
COc1cc(C(=O)N2CCN(C(=O)CC(C)C)CC2)cc(OC)c1OC,-0.3%,8%,-1,0%
O=C(NC1CCOc2ccccc21)c1ccccn1 (centres undefined),-2.9%,-4%,.,-2%
Cn1c(SCC(=O)c2ccccc2)nnc1-c1cccc(N)c1,-4.8%,-12%,-2,-48%

# 2 entries drawn at random from those above:
SMILES,Rango complex inh,Rango dissoc inh,GLA inh pH 4.5,miR-21 FLuc
C=CCn1c(SCC(=O)Nc2cc(C)on2)nc2sc3c(c2c1=O)CCCC3,3.1%,-7%,-4,-4%
Cc1ccc(-n2c(N)c(-c3nc4ccccc4n3C)sc2=S)cc1,-1.3%,-16%,4,-18%

# Other results.
SMILES,Rango complex inh,Rango dissoc inh,GLA inh pH 4.5,miR-21 FLuc
Cc1nc(SCC(O)CO)c([N+](=O)[O-])[nH]1 (centres undefined),-3.6%,49%,-1,-3%
CCOc1ccccc1NC(=O)N1CCC(NC(=O)C2CCCCC2)CC1,0.0%,2%,.,-1%
Cc1ccc(SCC(=O)NCCN2C(=O)CSC2=O)c(C)c1,-0.1%,7%,1,-5%
O=[N+]([O-])c1ccc(Cl)cc1C=NNc1ccccn1,1.7%,1%,.,.

# Structural class: the entries above containing a Cl atom.
SMILES,Rango complex inh,Rango dissoc inh,GLA inh pH 4.5,miR-21 FLuc
CN(CCO)C(=O)C1CCN(c2ncc(C(F)(F)F)cc2Cl)CC1,?,-2%,5,0%
Cc1ccc(Cl)cc1NC(=S)NCCCSC1CCCCC1,0.2%,-7%,-5,23%
O=[N+]([O-])c1ccc(Cl)c(S(=O)(=O)N2CCCCCC2)c1,-4.6%,7%,0,-11%
CCOC(=O)c1c(NC(=O)COC(=O)c2ccc(Cl)nc2)sc(C(=O)N(C)C)c1C,-2.8%,-1%,.,.
FC(F)(F)c1cc(Cl)c2nc(-c3ccccc3)cn2c1,-1.0%,16%,-21,-68%
O=C(N/N=C/c1ccc(Cl)cc1)c1sccc1OCc1ccc(F)cc1,0.7%,-6%,-2,-3%
O=C(NCC1COc2ccccc2O1)c1cc(S(=O)(=O)N2CCOCC2)c(Cl)cc1Cl (centres undefined),-4.2%,-14%,.,.
CCC(=O)N1CCN(c2ccc(NC(=O)c3ccc(C#N)cc3F)cc2Cl)CC1,-0.4%,25%,-10,-2%
O=C(CSc1ncn[nH]1)N1N=C(c2ccc(Cl)cc2)CC1c1ccco1 (centres undefined),-0.7%,0%,1,-11%
COc1ccc(Cl)cc1NS(=O)(=O)c1cccc(C(=O)NC2CCN(Cc3ccccc3)CC2)c1,2.1%,2%,.,.
Cc1ccc(Nc2nc(N)nc(CN3CCN(Cc4ccc5c(c4)OCO5)CC3)n2)cc1Cl,-1.3%,0%,-6,14%
O=[N+]([O-])c1ccc(Cl)cc1C=NNc1ccccn1,1.7%,1%,.,.
